Menin MLL FP FL = qHTS Assay for Inhibitors Targeting the Menin-MLL Interaction in MLL Related Leukemias: Competition With Fluorescein Labeled MLL-derived Peptide | Fluorescence polarization, fluorescein-MLL peptide displacement from menin | FP activity change, % at 61.4 µM | 290,000 tested, under 10 active; inconclusive = falling polarisation curve, or a change in total fluorescence; inactive = total fluorescence flat and polarisation flat or rising; no compound was filed as active; the % refers to the polarisation; negative = inhibition;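 further: % of control where 0% means no effect; inhibitors lower the polarisation; unlabelled MLL peptide was the positive control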
PINK1 modulator = A Quantitative High throughput Screen to Identify Chemical Modulators of PINK1 Expression | Potency, µM (titrated, usually from 76.6 µM), inactives show at the top dose activation (PINK1 increase), actives largely listed as activators | hit rate 0.2% among 410,000 | PINK1 immunofluorescence, high-content cytometry, 24 h; active = well fitted activation curve with a large enough effect; inconclusive = small, poorly fitted or top-dose-only effect; inactive = flat fitted curve, though single readings scatter; cell line not stated here;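 further: potency means the concentration at half of the fitted maximal effect; % of control where 0% means no effect; nearly all actives have a fitted effect of over 65% in size; a mitochondrial uncoupler was the plate control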
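Stable cell line treated 24 h with compounds at 5 concentrations (CCCP controls), then fixed and immunostained for PINK1 plus nuclear and cell stains; PINK1 immunofluorescence quantified by laser-scanning microplate cytometry.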
D2 ag = Beta-Arrestin HTS for Positive Allosteric Modulators of the Human D2 Dopamine Receptor: Agonists; hit rate 0.084% among 360,000; DiscoveRx PathHunter D2 beta-arrestin, luminescence, 90 min; 100% = 57 uM dopamine signal; activation, % (test concentration not listed); D(2) dopamine receptor (Homo sapiens), P14416; in the data active = activation above about 40%; inconclusive = about 15% to 40%; inactive = below about 15%; further: compound concentration not given in the record; the text of the record calls up to 30% inactive
Target sequence (P14416 whole entry, looked up): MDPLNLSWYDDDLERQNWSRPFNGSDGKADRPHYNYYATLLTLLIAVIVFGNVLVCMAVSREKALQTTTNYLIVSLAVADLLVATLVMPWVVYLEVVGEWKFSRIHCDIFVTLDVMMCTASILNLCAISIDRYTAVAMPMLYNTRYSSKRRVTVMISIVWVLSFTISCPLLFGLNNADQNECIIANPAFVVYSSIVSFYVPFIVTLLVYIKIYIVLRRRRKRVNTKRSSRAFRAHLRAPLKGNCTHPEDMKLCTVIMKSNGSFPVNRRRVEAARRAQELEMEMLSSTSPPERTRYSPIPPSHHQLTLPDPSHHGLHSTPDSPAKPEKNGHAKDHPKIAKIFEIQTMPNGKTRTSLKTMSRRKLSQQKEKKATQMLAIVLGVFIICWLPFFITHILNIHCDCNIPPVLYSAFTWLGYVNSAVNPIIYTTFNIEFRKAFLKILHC
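Agonist mode: compounds alone added to overnight-plated D2 PathHunter cells for 90 min at 37 C, with 57 uM final dopamine (EC100) defining full response. Beta-arrestin recruitment detected by chemiluminescent reagent, read after 1 h at ambient temperature.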
gsp ag = qHTS for Agonist of gsp, the Etiologic Mutation Responsible for Fibrous Dysplasia/McCune-Albright Syndrome: qHTS; gsp mutant cells, cAMP HTRF, 30 min; control for the full effect not named in the record; Potency, µM (top dose mostly 76.9 µM), without a hit: top-dose activation (cAMP increase), actives largely listed as activators; hit rate 0.13% among 340,000; active = well fitted activation curve with a large enough effect; inconclusive = small, poorly fitted or top-dose-only effect, or another doubt; inactive = no such curve, though single readings can be large or run the other way; cell line not stated here;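 further: phosphodiesterase inhibitor Ro 20-1724 added with compounds to block cAMP breakdown; potency means the concentration at half of the fitted maximal effect; nearly all actives have a fitted effect of over 60% in size; about a fifth of the inactives were tested at one dose only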
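Cells in DMEM/10% FBS with G418 were pretreated with compounds in DMSO plus […] (300 uM stock) for 30 min at 37C. cAMP was measured by HTRF (cAMP-d2 plus anti-cAMP antibody-K) after 30 min at room temperature.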
gsp antagonist = qHTS for Antagonists of gsp, the Etiologic Mutation Responsible for Fibrous Dysplasia/McCune-Albright Syndrome: qHTS; gsp-mutant cells, cAMP HTRF, 30 min; control for the full effect not named in the record; hit rate 0.4% among 340,000; Potency, µM (highest dose often 76.9 µM), for inactives: top-dose activity change, negative = inhibition, hits mostly inhibitors; active = falling curve of any shape with a large fitted effect; inconclusive = falling curve, mostly with a smaller effect; inactive = flat or rising curve; cell line not stated here;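 further: intracellular cAMP measured with PDE inhibitor Ro 20-1724 present during compound exposure; potency means the concentration at half of the fitted maximal effect; on the % scale 0 is the no-effect control and ±100 the full control effect; nearly all actives have a fitted effect of over 65% in size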
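Cells, 2000/well, grown 16–24 h in DMEM 10% FBS with 0.5 mg/ml G418, then compounds plus […] (300 uM addition stock), 30 min at 37C. cAMP read by HTRF (cAMP-d2 and anti-cAMP antibody-K in lysis buffer) after 30 min RT.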
Sfp inh = qHTS Assay for Inhibitors of Bacillus subtilis Sfp phosphopantetheinyl transferase (PPTase); Biochemical Sfp PPTase activity, qHTS; Potency, µM, without a hit: max response, negative = inhibition, most hits filed as inhibitors; hit rate 3.5% among 310,000; AID 1490, 2009; active means well fitted inhibition curve with a large enough effect; inconclusive means small, poorly fitted or top-dose-only effect, or another doubt; inactive means no such curve, though single readings can be large or run the other way;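 further: the enzyme is Sfp with the accession as filed and its product quenches rhodamine fluorescence; potency means the concentration at half of the fitted maximal effect; 0% = enzyme reaction without inhibitor and -100% = no enzyme wells; top concentration of the series not given in the record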
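Step 1, compound plus 15 nM Sfp-PPTase, 15 min, room temperature. Step 2, add rhodamine-CoA (5 uM) and BHQ-2-YbbR (12.5 uM). Step 3, read 525/598 nm fluorescence at 0 and 30 min.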
ClpP mod = qHTS Assay for Activators of ClpP; purified B. subtilis ClpP, FRET peptide cleavage, 20 min; Potency, µM (titrated, usually from 57.5 µM), inactives show top-dose activity change, negative = active; hit rate 1.9% among 340,000; active = well fitted falling curve with a large enough effect; inconclusive = small, poorly fitted or top-dose-only effect; inactive = no such curve, though single readings can be large or run the other way; further: potency means the concentration at half of the fitted maximal effect; the source files actives as falling curves though it sought activators and does not explain the sign; nearly all actives have a fitted effect of over 65% in size; many hits overshoot -100%
Target sequence (P80244 whole entry, looked up): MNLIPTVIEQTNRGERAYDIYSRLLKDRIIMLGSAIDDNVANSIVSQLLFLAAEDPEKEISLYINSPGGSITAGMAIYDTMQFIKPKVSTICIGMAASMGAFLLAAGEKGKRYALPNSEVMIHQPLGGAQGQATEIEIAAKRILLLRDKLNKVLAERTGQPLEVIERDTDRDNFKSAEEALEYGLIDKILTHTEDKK
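ClpP 10 microg/mL final, pH 8 Tris/KCl buffer with BSA, glycerol, Tween-20; compound pinned in; FRET-FV substrate; RT 20 min; Ex320/Em430; ΔFRET vs ADEP 5.8 microM, DMSO, no enzyme.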
* = called active by the depositor; ? = inconclusive; . = not tested or not shown; & = joins results of further samples; [ ] = remark or other dose.

SMILES	Menin MLL FP FL	PINK1 modulator	D2 ag	gsp ag	gsp antagonist	Sfp inh	ClpP mod
CCCOc1ccc(C2C(=O)N(C3CCCCC3)CC(=O)N2C2CC2)cc1OC (configuration not stated)	-1.5	2.9%[38.3 µM]	-2.1	?	-18%	16%	0.2%
O=C(Nc1cccc(S(=O)(=O)C(F)F)c1)c1ccc(S(=O)(=O)N2CCCCC2)cc1	-0.8	0.5%	-1.4	-4%[15.4 µM]	-23%	28%	.
CC/S(C)=N/S(=O)(=O)c1ccc(C)cc1 (configuration not stated)	6.7	3.4%	-1.5	-3%	3%	10%	-0.6%
O=C(N/N=C/c1cc(Br)ccc1O)c1ccncc1	?	0.5%	1.4	-4%	-8%	27%	1.7%
O=C(NNC(=S)NC(=O)c1ccccc1[N+](=O)[O-])c1ccccc1[N+](=O)[O-]	1.4	2.7%[38.3 µM]	-3.0	-32%[inhibitor]	-16%	-2%	-3.4%
CC1(C)SC(=S)N(NC(=O)Nc2cccc3ccccc23)C1N(O)C(=O)Nc1ccccc1 (configuration not stated)	3.6	?	1.8	-24%	-12%	45%[activator]	-1.5%
O=C(CN1C(=O)COc2ccccc21)N1CCCC1	-1.9	2.5%	-3.5	-20%	6%	14%	.
CC1=NN(c2ccccc2)C(=O)/C1=C/C=C/c1ccc(N(C)C)cc1	-1.5	3.4%	3.1	5%	35µM*	-7%	2.2%
CCN1C(=O)[C@H]2[C@H]3CN=C(SCc4ccc(C)cc4)N3[C@@](C)(C(=O)OC)[C@H]2C1=O	.	1.3%	3.0	.	12%	.	1.0%
Cc1[nH]c2ccccc2c1C(=O)NS(=O)(=O)Nc1ccc(Cl)cc1	-1.7	5.9%	2.0	-15%	6%	13%	.
CSc1nsc(SC)c1NC(=O)OCCc1ccccn1	6.8	-1.3%	1.5	22%	13%	-20%	0.1%
COc1ccc(C(=O)N2CC3(CC(c4cccc([N+](=O)[O-])c4)=NO3)C[C@H]2C(=O)NCC(N)=O)cc1 (some centres not stated)	0.5	3.1%	-2.8	?	7%	14%	-1.0%
COc1ccc(N2CCN(c3n[nH]c(N)n3)CC2)cc1	6.4	-1.0%	-3.9	-5%[15.4 µM]	5%	-5%	.
Cc1c(NC(=O)c2cccc(NC(=O)COc3ccccc3C#N)c2)c(=O)n(-c2ccccc2)n1C	.	6.1%	-4.8	6%	5%	.	-2.5%
Cc1noc(C)c1COc1cccc(C(=O)Nc2cccnc2)c1	1.2	2.6%	2.5	-2%[15.4 µM]	5%	9%	1.5%
COc1ccc(CCNC(=O)c2nnn(-c3cc(C)cc(C)c3)c2N)cc1OC	3.0	8.1%[38.3 µM]	0.8	-4%	-8%	9%	-4.0%
CCCc1cc(C(=O)O)c2ccccc2n1	-0.7	-7.1%[38.3 µM]	-3.0	32%	13%	-3%	-1.7%
Nn1cc(-c2ccccc2)nc1SCC(=O)NC1CCS(=O)(=O)C1 (configuration not stated)	0.1	-0.4%	-1.8	-43%[inhibitor]	-4%	4%	-2.2%
CN1CCC(OC(c2ccccc2)c2ccc(Cl)cc2)C1 (configuration not stated)	.	-1.8%	-4.7	-22%	13%	.	.
COCCn1c(SCC(=O)NC(=O)Cc2ccccc2)nc2ccccc2c1=O	.	2.6%	2.8	0%	-3%	.	-5.7%
CCN1CC(CN(C)Cc2nc(-c3ccc(C(F)(F)F)cc3)oc2C)CC1=O (configuration not stated)	6.3	2.2%	7.7	5%[15.4 µM]	-4%	-6%	.
CCCCc1nc(N2CCN(C(=O)c3ccco3)CC2)c(C#N)c2c1CCCC2	.	-1.3%	-0.2	14%	-31%	45µM*	3.6%
CCOC(=O)N1CCN(C/C(Cl)=C/c2ccccc2)CC1	1.0	0.9%	?	4%[15.4 µM]	2%	?	1.2%
O=C(CCC(=O)Nc1cccc(C(F)(F)F)c1)NCC1CCCO1 (configuration not stated)	4.4	-0.5%	7.3	-66%	2%	24%	.
CCCSc1nnc(C(C)C)n1N	2.3	15%[38.3 µM]	-2.4	25%	10%	11%	-0.2%
CCOC(=O)C1(Cc2cccc(Cl)c2)CCCN(C(=O)c2cc(CC)on2)C1 (configuration not stated)	.	1.2%	-1.1	-13%[15.4 µM]	-22%	9%	1.0%
CC(NC(=O)c1cc([N+](=O)[O-])cc([N+](=O)[O-])c1)C1CC2CCC1C2 (configuration not stated)	2.1	5.0%	13	-21%	-4%	-11%	.
Cc1nc([N+](=O)[O-])c(C(=O)OCc2ccccc2)n1C	2.5	0.8%	0.3	-8%	1%	12%	.
Fc1ccccc1CN1CCC(Cc2ccccc2)CC1	-1.0	6.6%	-3.8	-58%[15.4 µM]	2%	-25%	-2.6%
CCC1CCCCN1CCN1C(=O)C2C(C(=O)Nc3cccc(OC)c3)C3C=CC2(O3)C1C(=O)NC1CCCCC1 (configuration not stated)	0.0	0.8%	2.3	?	7%	2%	.
COC(=O)c1[nH]c2cc(OC)ccc2c1NC(=O)CCN1CCCC(C)(C)C1	3.5	9.7%[38.3 µM]	-0.9	9%	2%	13%	?
O=C(Oc1ccc(Br)cc1)c1cncc(Br)c1	1.6	-4.1%[38.3 µM]	-0.9	-27%	-1%	17%	-2.5%
O=C(Nc1ccc2nc3n(c(=O)c2c1)CCCC3)c1ccccc1[N+](=O)[O-]	5.0	-2.2%	-4.8	10%[15.4 µM]	3%	6%	-6.4%
O=C(COc1ccccc1)Nc1c2c(nn1-c1ccccc1)CS(=O)C2 (configuration not stated)	.	0.1%	0.2	-2%[15.4 µM]	7%	14%	-1.1%
COc1c(C)cc(C(=O)C2CCCN(C(=O)CCCn3cncn3)C2)cc1C (configuration not stated)	-0.3	2.4%	0.7	-12%	-7%	3%	0.6%
CCOC(=O)c1cc(Cl)c2c(ccc3ccccc32)n1	.	0.8%	-1.4	16%	.	.	-12%
CC(C)CCNC(=O)CNC(=S)N(Cc1ccccc1)Cc1cccnc1	2.1	-0.4%	-0.2	4%[15.4 µM]	-13%	11%	1.0%
COc1ccc(N(CC(=O)N2CCN(c3ccccc3F)CC2)S(=O)(=O)c2c(C)noc2C)cc1	-2.8	2.8%&-0.4%	1.8	?	8%	16%	-0.7%&-7.3%
N#C/C(=C(/O)c1ccco1)c1nc2ccccc2s1	-0.6&1.0	?	-3.7&1.0	-16%&-7%	35µM*	-11%&-2%	-4.3%&-2.7%
CC(=O)c1ccc(NC(=O)CSc2nc(C3CC3)nc3ccccc23)cc1	-1.2	?	-1.3	13%[15.4 µM]	-23%	4%	-0.2%
O=C(NCc1ccoc1)c1ccc(NC(=O)c2ccccc2Cl)cc1	-0.9	-1.9%	1.6	-33%[inhibitor]	10%	2%	-1.5%
COc1cccc(NC(=O)C(=S)NC2CCCCC2)c1	0.2	17%	-6.7	6%[15.4 µM]	-18%	6%	0.9%
Nn1c(SCC(=O)NC(=O)Nc2ccc3c(c2)OCCO3)nnc1C1CC1	3.1	-0.6%	-4.2	-14%[15.4 µM]	2%	17%	.
COC(=O)C(C)Sc1ccc2nnc(-c3ccc(F)cc3)n2n1 (configuration not stated)	0.3	1.6%[38.3 µM]	-0.4	?	0%	8%	?
CCOC(=O)c1cnn(-c2nc(-c3ccccc3F)cs2)c1C(F)(F)F	4.0	?	-3.8	?	-8%	0%	35µM*

Reformatted: 2 of the compounds above
COc1ccc(N(CC(=O)N2CCN(c3ccccc3F)CC2)S(=O)(=O)c2c(C)noc2C)cc1
  Menin MLL FP FL: -2.8
  PINK1 modulator: 2.8%&-0.4%
  D2 ag: 1.8
  gsp ag: ?
  gsp antagonist: 8%
  Sfp inh: 16%
  ClpP mod: -0.7%&-7.3%
N#C/C(=C(/O)c1ccco1)c1nc2ccccc2s1
  Menin MLL FP FL: -0.6&1.0
  PINK1 modulator: ?
  D2 ag: -3.7&1.0
  gsp ag: -16%&-7%
  gsp antagonist: 35µM*
  Sfp inh: -11%&-2%
  ClpP mod: -4.3%&-2.7%

Following part.
SMILES	Menin MLL FP FL	PINK1 modulator	D2 ag	gsp ag	gsp antagonist	Sfp inh	ClpP mod
O=C(COc1ccc(S(=O)(=O)N2CCCC2)cc1)NCc1ccco1	2.1	0.1%	-1.0	2%	4%	11%	-1.7%
O=C(CCN1C(=O)COc2ccccc21)N1CCN(c2ccccn2)CC1	1.9	-6.6%[38.3 µM]	-0.9	-35%[inhibitor]	2%	17%	-21%
O=C(NC1CCCCC1)C(Cc1ccccc1)N1C(=O)C2C3CCC(C3)C2C1=O (configuration not stated)	2.4	.	2.4	-74%[inhibitor]	-16%	20%	0.2%
CCCCc1c(O)nc(SCC(=O)c2ccccc2)[nH]c1=O	4.1	3.7%	-4.9	-4%	-26%	16%	-1.4%
CCCCNC(=O)C1CCC(=O)N1CCc1ccccc1 (configuration not stated)	3.2	1.7%	0.6	9%	7%	9%	.
Cc1ccccc1OCc1nc2ccccc2c(=O)n1/N=C/c1ccco1	-6.4	0.2%	0.4	-9%	-11%	-4%	0.7%
CC(C)(C)c1cc[n+](C2=C([O-])c3ccccc3C(=O)/C2=N\S(=O)(=O)c2ccccc2)cc1	-4.5	0.4%	0.8	-8%[15.4 µM]	-3%	-12%	.
Cc1cccc(-n2c(N)cc(=O)nc2SCC(=O)NC2CCCCC2)c1	-1.1	2.2%	-2.2	-15%	9%	15%	1.7%
O=C(NCCCN1CCCC1=O)c1ccc2c(c1)OCO2	-0.3	5.1%[38.3 µM]	-1.0	-7%	17%	-15%	-1.6%
O=C(N/N=C/c1ccccc1[N+](=O)[O-])c1ccc(COc2ccccc2-c2ccccc2)cc1	-0.3	-0.6%	2.5	-55%[inhibitor]	0%	3%	?
CC(=O)Nc1ccc(NC(=S)NC(=O)/C=C/c2ccco2)cc1	?	6.7%	-0.9	-72%[inhibitor]	-10%	-28%	.
CCOC(=O)c1[nH]c2ccc(F)cc2c1NC(=O)CCN1CCSCC1	-1.3	2.4%	-4.3	-17%	8%	13%	?

Source: PubChem
